Bioassay records as filed in PubChem.
HCMV UL50-53 inh = inhibitors of HCMV UL50-UL53 nuclear egress complex interaction; inhibition, % (concentration not given with the values); AID 1918969; HTRF UL50-UL53 interaction, normalized percent inhibition; hit rate 0.15% among 190,000;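 active means both replicates at 50% or more, plus weaker picks with an unusually low signal ratio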;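 further: stock transfer was 100 nL into about 20 µL; 0% = negative control wells and 100% = wells with untagged competitor protein; inactives centre near -12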
GIV-Gai inh = GIV-Galpha-i interaction inhibition | percent of control (FP), % (concentration not given with the values) | AID 1224905 | hit rate 0.42% among 210,000 | P08753 | Galpha-i3/FITC-GIV peptide fluorescence polarization, 90 min; stronger effect = lower value; scaled: aluminum fluoride 0%, vehicle 100%;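 active means replicate mean at 85% of control or lower, very high polarization wells dropped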;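 further: wells of about 15 µL received 100 nL stock; the first replicate is given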
Target sequence (P08753 whole entry, looked up): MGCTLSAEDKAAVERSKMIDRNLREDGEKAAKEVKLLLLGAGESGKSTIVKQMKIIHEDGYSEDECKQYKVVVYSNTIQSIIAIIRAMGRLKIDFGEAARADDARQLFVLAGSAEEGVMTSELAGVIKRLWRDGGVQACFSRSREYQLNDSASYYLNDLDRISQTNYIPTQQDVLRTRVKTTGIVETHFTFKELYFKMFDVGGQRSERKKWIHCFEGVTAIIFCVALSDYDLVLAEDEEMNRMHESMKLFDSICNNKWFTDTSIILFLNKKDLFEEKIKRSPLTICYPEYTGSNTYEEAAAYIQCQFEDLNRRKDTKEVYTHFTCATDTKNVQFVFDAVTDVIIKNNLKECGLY
Sa growth 42C = blocks Staphylococcus aureus growth; S. aureus RN4220 growth, OD600, 20 h, 42 °C; stronger effect = lower value; relative growth, % (no concentration beside the values); hit rate 0.53% among 170,000;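 active means growth at 42 °C up to 50% and 20 or more points under that at 30 °C, or under 10% at both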;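 further: 300 nL library stock went into each well; scaled to the means of positive and negative controls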
Sa growth 42C second temp = further read-out of Sa growth 42C, marked with its call; relative growth, %; measured here: growth at 30 °C;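 optical density after 20 h as mean of two plates; 100% = untreated growth and lower means inhibition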
The depositor's hits bear a star; . = not tested or not shown; & = joins results of further samples. Not a hit list. About 0.8% of those tested had a hit in this group.

Screens in order: HCMV UL50-53 inh	GIV-Gai inh	Sa growth 42C	Sa growth 42C second temp
Cc1cc(NC(=O)CN2CCCc3ccccc32)no1
 : -1	.	93	79
O=C(O)c1ccc(N2C(=O)c3[nH]nc(-c4ccccc4)c3C2c2cccc(O)c2)cc1 (stereo unspecified)
 : -20	96	.	.
O=S(=O)(c1ccc(-c2cc(C(F)(F)F)on2)s1)N1CCC(O)CC1
 : 1	102	102	101
CC1=C(C(=O)N2CCN(c3ccc(Cl)cc3)CC2)C2(CCC(C)CC2)OC1=O (stereo unspecified)
 : -6	110	99	102
CCC1=C(C)CN(C(=O)NCCc2ccc(S(=O)(=O)NC(=O)NC3CCC(C)CC3)cc2)C1=O (stereo unspecified)
 : -41&2&4&-44&1	101	92&94	81&90
CC(C)[C@H]1COC(c2cccc(C3=N[C@@H](C(C)C)CO3)n2)=N1
 : 15	103	116	97
CSC(C)c1ccn(S(=O)(=O)c2ccc(Cl)cc2)n1 (stereo unspecified)
 : 14	105	93	95
CCc1nnc(NC(=O)CCCc2nc(-c3cccnc3)no2)s1
 : -14	104	.	.
Cc1cc(-c2c(C)sc(C)c2S(=O)(=O)Nc2ccc(S(N)(=O)=O)cc2)on1
 : -18	105	.	.
CCC(=O)Nc1ccccc1-c1nc2ccccc2n(CC(=O)Nc2ccc(C)c(C)c2)c1=O
 : -12	100	126	72
O=C(O)Cc1ccc2c(c1)CCC2
 : 4	98	106	87
CCN(C(=O)c1cccc(C)c1)c1ccccc1
 : -6	101	100	100
Cc1cc(C)c(S(=O)(=O)N2CCN(Cc3nc4ccc(C)cc4o3)CC2)c(C)c1
 : .	105	114	102
COc1ccc2oc(=O)c(-c3nc(-c4ccncc4)n[nH]3)cc2c1
 : -25	100	103	87
CN(c1ccc(-c2csc(-c3cccs3)n2)cc1)S(C)(=O)=O
 : -35	.	86	92
O=C(Cn1cc(S(=O)(=O)N2CCCC2)c(S(=O)(=O)N2CCCC2)c1)Nc1cccc(F)c1
 : .	100	91	80
NNc1ncnc2c1oc1ccccc12
 : .	104	93	73
O=C(NCc1ccc2[nH]c3c(c2c1)CCCC3)c1ccc(C(F)(F)F)cc1
 : .	98	95	83
Cc1oc(-c2cccs2)cc1C(=O)NCCNc1nccc(C(F)(F)F)n1
 : .	102	107	87
FC(F)(F)c1cc(-c2ccc(Br)cc2)n[nH]1
 : -4	110	8.6*	4.2*
CC(CNC(=O)CCCn1c(=O)c2cccn2c2ccc(F)cc21)c1ccccc1 (stereo unspecified)
 : -23	98	94	66
O=C(O)COc1ccccc1Cc1ccccc1
 : -16	.	140	105
Cc1ccc(CCNS(=O)(=O)c2cnc[nH]2)cc1
 : 0	97	113	91
Clc1ccccc1OCc1nnc2n1CCC2
 : 7	.	82	95
CCC(=O)Nc1ccc(S(=O)(=O)N2CCCCC2CC)cc1 (stereo unspecified)
 : -14	109	94	108
Cc1ccc2nc(-c3cccc(-c4nc5ccc(C)cc5o4)n3)oc2c1
 : .	99	82	89
COc1ccc(CN(C)S(C)(=O)=O)cc1
 : 4	103	94	87
Cc1ccc(-n2c(SCC(=O)N3CCNC3=O)nnc2-c2ccccc2)cc1C
 : 2	.	96	98
CN(Cc1ccccc1)S(=O)(=O)c1ccc(N2CCOCC2)nc1
 : -4	108	92	75
COc1cc(-c2cc(OC)c3c(C)oc(C)c3c(=O)c2)ccc1OC(=O)c1ccccc1C
 : -54	98	99	74
CCNc1nc(N(CC)CC)nc(-n2cnc(SC)n2)n1
 : -4	100	.	.
CC(=O)N1c2ccc(S(=O)(=O)NC(Cc3ccccc3)C(=O)Nc3ccc(C)cn3)cc2CC1C (stereo unspecified)
 : 0	105	.	.
Cc1nnc(NC(=O)c2cn(-c3ccccc3)nc2-c2cccnc2)o1
 : 2	.	94	89
O=c1[nH]c(SCc2ccccc2)nc2c(-c3ccccc3)c[nH]c12
 : -39	107	.	.
COc1ccccc1NC(=O)Nc1ccc2nc3n(c(=O)c2c1)CCC3
 : -6	107	.	.
COc1cc(OC)c(NC(=O)c2c(C)oc3ncn(C)c(=O)c23)cc1Cl
 : -37	96	91	92
CC(=O)Nc1ccc(S(=O)(=O)c2cc(OC(=O)c3ccco3)ccc2OC(=O)c2ccco2)cc1
 : -19	100	93	79
CC1CC(C)CN(CCCNC(=O)Cc2c(C(=O)O)[nH]c3ccccc23)C1 (stereo unspecified)
 : .	105	97	92
O=C(Cn1ncc2c3ccccc3n(Cc3cccc(Cl)c3)c2c1=O)N1CCCCCC1
 : -37	150	88	78
Cc1ccc2nc(NCc3ccccc3)c3nnnn3c2c1
 : .	112	114	104
CCOC(=O)Cc1nc2nc(C)cc(=O)n2[nH]1
 : 6	105	.	.
COc1ccc2c(C)c(CC(C)O)c(=O)oc2c1 (stereo unspecified)
 : .	108	109	77
O=C1NC(=Nc2ccccc2)SC1Cc1cccc(Cl)c1 (stereo unspecified)
 : -4	106	.	.
C=CCn1c(SCC(=O)NCc2cccnc2)nc2sc(C)c(C)c2c1=O
 : -15	104	.	.
CCC(=O)Nc1ccc(OC)c(CN2CCn3c(nc4ccccc43)C2)c1
 : -18	96	.	.
COC(=O)c1ccc(C(=O)Nc2ccc(-c3nc4cc(NC(=O)c5ccc(C(=O)OC)cc5)ccc4o3)cc2)cc1
 : -14	102	95	83
COc1ccc2cc3c(nc2c1)OCC3
 : -25	106	94	63
CSc1ccc(CCNC(=O)CN2C(=O)c3cccnc3Oc3ccc(C)cc32)cc1
 : .	104	84	86
C1C2CC3CC1CC(C2)C3Nc1nc2nonc2nc1NC1C2CC3CC(C2)CC1C3 (stereo unspecified)
 : 6	114	.	.
Cc1nc2sc3c(c2c2nnc(SCC(=O)c4ccccc4)n12)CCCC3
 : 4	103&109	100	91
CCn1c(=N)c(C(=O)NCc2ccccc2)cc2c(=O)n3cc(C)ccc3nc21
 : -51	105	105	85
Cc1oc(-c2ccc(C(=O)N3CCN(c4ccccn4)CC3)cc2)nc1CN1CCc2ccccc21
 : -5	109	.	.
CCNc1nc(NCC)nc(C(=O)OCCO)n1
 : .	103	86	86
CC(C)(C)c1cc(NS(=O)(=O)c2ccc(C#N)cc2)no1
 : -5	109	105	88
COc1ccc(C(=O)Nc2ccc3oc(-c4cccnc4)nc3c2)cc1
 : -28	103	101	81
COc1ccc(-n2c(=S)[nH]c3cc(C(=O)NC4CCCC(C)C4C)ccc3c2=O)c(OC)c1 (stereo unspecified)
 : .	103	138	74
CN(c1cc(=O)n2ccccc2n1)C1CCCCC1
 : -32	.	95	88
COC(=O)C1=C(C)NC(=O)/C1=C\c1cc(C)n(-c2ccc(OC)c(Cl)c2)c1C
 : .	103	88	44
Cc1ccc2c(CC(=O)OC(C)C(=O)Nc3ccc(N4CCOCC4)cc3)coc2c1 (stereo unspecified)
 : -29	.	77	87
O=c1c2ccccc2n2c(SCc3cccc(F)c3)nnc2n1Cc1ccccc1
 : -28	95	.	.

Molecules shown so far that contain a CF3 group:
Screens in order: HCMV UL50-53 inh	GIV-Gai inh	Sa growth 42C	Sa growth 42C second temp
O=S(=O)(c1ccc(-c2cc(C(F)(F)F)on2)s1)N1CCC(O)CC1
 : 1	102	102	101
O=C(NCc1ccc2[nH]c3c(c2c1)CCCC3)c1ccc(C(F)(F)F)cc1
 : .	98	95	83
Cc1oc(-c2cccs2)cc1C(=O)NCCNc1nccc(C(F)(F)F)n1
 : .	102	107	87
FC(F)(F)c1cc(-c2ccc(Br)cc2)n[nH]1
 : -4	110	8.6*	4.2*

(listing goes on)
Screens in order: HCMV UL50-53 inh	GIV-Gai inh	Sa growth 42C	Sa growth 42C second temp
COc1cccc(C(=O)CC(C(=O)O)c2ccc(F)cc2)c1 (stereo unspecified)
 : -8	106	.	.
CC(=O)N1CCOc2ccc(S(=O)(=O)N3CCN(c4ccccn4)CC3)cc21
 : -14	109	.	.
CCOC(=O)c1ccc(NC(=O)CCN2C(=O)/C(=C/c3ccccc3OC)SC2=S)cc1
 : 2	101	.	.
COc1cc(NC(=O)Cn2c(=O)n(Cc3ccccc3)c(=O)c3oc4ccccc4c32)cc(OC)c1
 : .	100	113	88
Nc1nc2ccccc2n1Cc1ccc(Cl)c(Cl)c1
 : 2	.	57	0
Cc1nc(NCc2ccco2)nc2c1C(=O)CC(C)C2 (stereo unspecified)
 : .	99	91	92
COc1ccc(Cn2c(CCC(=O)Nc3ccc(C)cc3C)nc3cccnc32)cc1
 : -5	100	96	89
O=C1OCC(c2ccc(Cl)cc2)=C1c1cccs1
 : -42	.	92	80
Cc1ccc(C)c(Cn2c(=O)c(=O)n(Cc3ccc(C(=O)N4CCOCC4)cc3)c3ncccc32)c1
 : -1	100	.	.
CN(C(=O)CSc1nncn2c1cc1sccc12)c1ccccc1
 : .	99	125	61
S=C(NCCn1cc(Br)cn1)Nc1ccc2c(c1)OCO2
 : 1	104	101	93
CC(=O)NC(=S)Nc1nc2ccccc2n1C(C)=O
 : .	96	104	75
N#Cc1c(NC(=O)c2ccc(N3C(=O)C4C5C=CC(C5)C4C3=O)cc2)sc2c1CCC2 (stereo unspecified)
 : -2	107	.	.
Brc1ccc2c(c1)OCCO2
 : -28	.	97	94
COC(=O)c1sc(-c2cccs2)cc1NC(=O)CCC(=O)O
 : -140	104	108	91
CC(=O)Oc1ccc(C(=O)Nc2ccc(F)cc2F)cc1
 : -3	.	120	114
CCNCc1ccncc1
 : -24	.	98	88
CC1CCN(C(=O)Cn2c(=O)n(Cc3ccccc3)c(=O)c3c4c(sc32)CCC4)CC1
 : -24	103	.	.
COc1ccc(Cl)cc1NC(=O)C1CCCN(c2nc3cccnc3s2)C1 (stereo unspecified)
 : -21	107	.	.
Cn1ccnc1SCC(=O)Nc1ccccc1Oc1ccccc1
 : -1	.	102	88
CC(C)c1ccc2c(c1)-c1ccccc1S(=O)(=O)N2CC(=O)N1CCCCC1
 : -10	102	107	92
COc1ccc(OCC(C)N)cc1 (stereo unspecified)
 : -12	101	114	94
Cc1ccc(C(=O)N2CCN(c3ccc(F)cc3)CC2)cc1-n1nnc2cccnc21
 : -34	108	.	.
CCn1c(CN2CCN(S(C)(=O)=O)CC2)nc2cc(NC(=O)C3CCCCC3)ccc21
 : -9	103	.	.
CN(Cc1nc2ccccc2s1)S(=O)(=O)c1cccc(Cl)c1
 : -31	.	69	92
COc1ccc2nc(NS(=O)(=O)Cc3ccccc3)sc2c1
 : 1	97	101	79
CCOC(=O)N1CCN(C(=O)CCCC2CCCCC2)CC1
 : -2	.	101	89
O=C(O)/C=C\C(=O)Nc1ccc2cn[nH]c2c1
 : -16	101	78	104
Cc1cc(C)n(-c2ccc(C(=O)OCC(=O)Nc3c(Cl)cccc3Cl)cc2)n1
 : -3	.	106	96
O=C(O)CC(NC(=O)c1ccccc1)C(=O)O (stereo unspecified)
 : -3	109	110	99
CCOc1ccc(N(C)S(=O)(=O)c2ccc3c(c2)C(C)(C)C(=O)N3C)cc1
 : .	106	89	89
CN(C)c1ccc(C(CNC(=O)c2ccc(C(C)(C)C)cc2)N2CCOCC2)cc1 (stereo unspecified)
 : .	104	102	85
CCOc1ccc(NC(=O)Cn2nnc(C(=O)Nc3ccc(OCC)cc3)c2N)cc1
 : -18	104	102	95
CCCCC1=NN(C(=O)c2ccc(Cl)cc2)C(O)(C(F)(F)F)C1 (stereo unspecified)
 : 5	110	.	.
CC(=O)Nc1cccc(C(=O)NCc2ccccc2F)c1
 : -5	.	97	86
O=C(c1ccco1)N1CCN(C(=O)c2cnn(-c3ccccc3)c2-n2cccc2)CC1
 : -12	101	87	78
CCOC(=O)c1cccc(CSc2n[nH]c(N)n2)c1
 : -20	102	95	107
COc1ccccc1NC(=O)CCCOc1cc(=O)n(C)c2ccccc12
 : 11	108	106	89
Nc1c2c(nn1Cc1ccccc1)CCCn1c-2nc2ccccc2c1=O
 : -12	.	89	92
COc1cc(/C=c2\sc3nc4ccccc4n3c2=O)ccc1OC(=O)c1ccc(Cl)cc1
 : -11	112	.	.
COc1ccc(-c2cnc(N3CC(O)=C(c4nc5ccccc5s4)C3=N)n2C)cc1
 : -14	104	.	.
